Screening data: PubChem BioAssay, several laboratories
Beta apoptosis – beta cell apoptosis inhibition; INS-1E cytokine-induced death, ATP luminescence, 48 h; percent of positive-control rescue, neutral wells zero; protection from apoptosis, % (no concentration beside the values); 300,000 tested, 0.8% active; AID 435005;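 active = all replicates at 75% or more, or half of them and the mean; inconclusive = half reach 75% but not the mean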;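 note: 0% = cytokine-treated negative control wells and 100% = positive control rescue; higher means more ATP so stronger rescue from cytokine killing; wells of about 40 µL received 100 nL stock; the first replicate is given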
RanGTP-Imp inh – disruptors of Ran-importin-beta complex formation – biochemical, FRET, CFP-Ran, YFP-importin-beta, homogeneous, primary screen; cell-free CFP-Ran/YFP-importin-beta FRET ratio; inhibition, % (test concentration not listed); 300,000 tested, 1.1% active; AID 2216;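 active = most replicates above 15%; inconclusive = exactly half above 15%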;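 note: 0% = DMSO wells and 100% = Ran loaded with GDP instead of GTP; wells of about 40 µL received 100 nL stock; the first replicate is given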
Calb FLC – affects C. albicans growth with fluconazole; C. albicans CaCi-2 (fluconazole-resistant clinical isolate) + fluconazole, Alamar Blue growth, 48 h; growth inhibition, % (no concentration beside the values); 300,000 tested, 0.57% active; AID 1979;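 active = most replicates above 75%; inconclusive = exactly half above 75%; inactive = most below 75%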;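 note: all wells also contain fluconazole at 8 µg/ml as a sub-toxic cotreatment; 0% = median of DMSO wells and 100% = median of geldanamycin control wells; wells of about 8 µL received 7.5 nL stock; the first replicate is given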
Bfl-1 A1 inh – inhibitors of the anti-apoptotic protein A1, read as caspase activation; MEF A1-2A-BIM cells, Caspase-Glo 3/7 luminescence, 3 h; percent of clofoctol response, vehicle zero; caspase activation, % (test concentration not listed); 330,000 tested, 0.066% active; AID 2462;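 active = over half of replicate activation scores above 10%, or exactly half above 10 with the replicate mean above 10; inconclusive = replicate mean below 10 yet half the replicates above 10; inactive = over half of replicates below 10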;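 note: wells of about 30 µL received 50 nL stock; many hits fall short of the cut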
MLL AF4-AF9 inh – MLL-AF4/AF9 protein interaction inhibition | P42568 | AlphaScreen, biotin-AF4 peptide binding to FLAG-AF9 | inhibition, % at 10 µM | 350,000 tested, 0.47% active | AID 651704;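 active = every replicate reaching a set inhibition limit, whatever the replicate mean, cut at about 25% in these data; inconclusive = mean inhibition reaches that limit but some replicates miss it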;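 note: 0% = plate neutral control median and 100% = total signal loss; the record names both 10 and 1 µM as test concentration; the first replicate is given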
Target sequence (P42568 whole entry, looked up): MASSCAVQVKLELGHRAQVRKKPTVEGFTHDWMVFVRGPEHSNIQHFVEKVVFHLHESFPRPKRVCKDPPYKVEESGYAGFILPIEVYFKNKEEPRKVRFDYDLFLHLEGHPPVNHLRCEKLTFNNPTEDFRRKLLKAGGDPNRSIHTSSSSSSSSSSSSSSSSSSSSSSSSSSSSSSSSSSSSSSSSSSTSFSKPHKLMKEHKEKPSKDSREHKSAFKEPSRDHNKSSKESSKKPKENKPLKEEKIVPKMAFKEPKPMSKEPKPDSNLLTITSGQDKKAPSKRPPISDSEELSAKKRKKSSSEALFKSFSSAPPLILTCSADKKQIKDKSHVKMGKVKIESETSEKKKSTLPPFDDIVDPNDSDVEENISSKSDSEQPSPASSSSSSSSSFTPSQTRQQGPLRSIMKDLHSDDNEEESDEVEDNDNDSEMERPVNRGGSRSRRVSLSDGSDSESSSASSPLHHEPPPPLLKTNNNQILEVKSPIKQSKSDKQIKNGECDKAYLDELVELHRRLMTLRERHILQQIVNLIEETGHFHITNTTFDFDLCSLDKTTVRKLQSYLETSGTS
Vif A3G – inhibitors of Vif binding to APOBEC3G peptide, primary screen, biochemical, TR-FRET, GST-Vif 1-94, biotin-A3G peptide, dose response retest (AID 1117319) | inhibition, %, or IC50 in µM where a hit was titrated | 260,000 tested, 0.57% active | TR-FRET GST-Vif / biotin-A3G peptide binding; higher % means a stronger effect; test concentration not given here; strong numbers were not always called active;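 active = above the screen mean plus three standard deviations and confirmed in dose response; inconclusive = results disagree or hit not tested in dose response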;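 note: Vif residues 1-94 fused to GST binding biotinylated APOBEC3G peptide 110-148; 0% = full assay without inhibitor and 100% = GST in place of GST-Vif; retest series ran down from 100 µM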
Ecoli rRNA inh – selective bacterial rRNA inhibition in E. coli. GFP signal change (wild-type ribosome), % (no concentration beside the values). AID 720706. E. coli WT GFP vs humanized-ribosome RFP mutants, fluorescence, 24 h; hits give low values; DMSO median 0, no signal -100. 350,000 tested, 1.6% active;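 active = significant combined selectivity score with lowered wild-type GFP, culture density cut under 30%, mutant RFP and density less affected; inactive = any of these conditions unmet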; note: one replicate is shown; some compounds called inactive have numbers as strong as hits
T cruzi inh – blocks replication of Trypanosoma cruzi; T. cruzi beta-gal in NIH3T3, luminescence, 90 h; inhibition, % (concentration not given with the values); 300,000 tested, 1.4% active; AID 1885;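 active = mean inhibition across valid replicates above about 55%, limit read from the data; inconclusive = mean below that limit but half or more replicates reach it; inactive = mean below it, under half of replicates reach it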;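 note: signal also drops with host cell toxicity which is not excluded here; 0% = plate median of DMSO wells and 100% = zero luminescence signal; higher percent means less beta-gal luminescence so fewer parasites; stock transfer was 50 nL into about 50 µL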
Ecoli rRNA inh OD600 – also measured in Ecoli rRNA inh; calls as there; OD600 change, %; measured here: OD600 growth;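 optical density of the mix in the first replicate; 0 = DMSO median and -100 = no signal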
Ecoli rRNA inh RFP – also measured in Ecoli rRNA inh; calls as there; RFP signal change, %; measured here: RFP humanized mutant strains;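 first replicate; 0 = DMSO median and -100 = no signal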
* hit, by the source's call; ? = inconclusive; · = not tested or not shown.

Fields – Beta apoptosis | RanGTP-Imp inh | Calb FLC | Bfl-1 A1 inh | MLL AF4-AF9 inh | Vif A3G | Ecoli rRNA inh | Ecoli rRNA inh OD600 | Ecoli rRNA inh RFP | T cruzi inh
> CC(C)C[C@H](NC(=O)c1[nH]cnc1C(=O)N[C@@H](C)C(=O)OC(C)(C)C)C(=O)OCc1ccccc1
  7.0 | 1.9 | -6.8 | 0.0 | · | 4.3% | · | · | · | 20.7
> O=C(NC(=S)Nc1ccccc1Br)c1ccc2c(c1)OCO2
  1.5 | 6.9 | -5.7 | -1.4 | -0.7 | 0.7% | 11.8 | 14.2 | -0.7 | -24.0
> Nc1ccccc1-c1nc2ccccc2[nH]1
  3.1 | 4.6 | 0.1 | -2.9 | · | 18.2% | · | · | · | 15.2
> COc1ccc(N2CCN(C(=O)c3cc(-c4ccc(F)cc4)[nH]c3C)CC2)cc1
  4.0 | -0.8 | 5.4 | 0.5 | 9.3 | 0.5% | 4.0 | 0.0 | 12.5 | 7.0
> O=C(COc1ccccc1)NCC(c1ccco1)N1CCN(c2ccccc2)CC1 (centres undefined)
  -0.2 | -1.2 | 4.5 | -0.5 | 0.8 | 3.4% | -10.6 | -16.2 | -1.0 | -3.3
> O=C(COC(=O)C1CCN(S(=O)(=O)c2ccccc2C(F)(F)F)CC1)NCc1ccc(F)cc1
  -2.0 | -3.4 | 5.7 | -0.9 | 4.1 | -5.7% | -0.8 | -2.1 | 2.2 | 9.9
> CCOC(=O)/C=C(\C)Sc1cc(=O)oc2ccccc12
  -38.4 | 2.1 | ? | -0.2 | · | 0.9% | · | · | · | 1.1
> O=C(NCc1ccccc1)C(c1ccc(O)cc1)N(C(=O)Cn1nnc(-c2cccs2)n1)c1ccc2c(c1)OCCO2 (centres undefined)
  -1.6 | -2.8 | 11.1 | 0.3 | · | 7.2% | · | · | · | 46.9
> O=C(O)C1C2C=CC(C2)C1C(=O)Nc1cccc(F)c1 (centres undefined)
  -2.1 | 2.6 | 5.5 | 1.1 | · | 6.2% | · | · | · | -2.3
> COc1ccc(C(=O)Cn2c(Br)nc3c2c(=O)n(C)c(=O)n3C)cc1OC
  4.0 | 5.0 | -10.3 | -0.5 | · | -2.9% | · | · | · | -15.4
> Nc1nsnc1C(=O)NCCO
  -7.1 | 7.3 | -13.5 | -0.3 | · | 17.8% | 17.0 | 7.1 | 4.5 | -19.7
> COc1ccc(/C=C2/SC(=S)N(NS(=O)(=O)c3ccc(C)cc3)C2=O)cc1
  1.2 | -0.2 | -0.3 | -0.8 | -4.8 | · | -50.2 | -65.2 | -11.9 | 4.0
> Cc1cc(C)nc(SCCC(=O)N(C)C)n1
  -6.9 | -2.2 | 9.1 | 0.6 | · | 5.1% | · | · | · | 6.7
> O=C(CNC(=O)c1ccco1)NCC(=O)OC(C(=O)c1ccccc1)c1ccc(Cl)cc1 (centres undefined)
  -1.3 | -0.3 | -0.1 | -0.6 | · | 18.4% | · | · | · | 4.3
> Cc1n[nH]c(C)c1CCCCOc1ccccc1[N+](=O)[O-]
  32.6 | -3.6 | 9.3 | -0.4 | 8.0 | · | -42.7 | -71.8 | -7.1 | 10.5
> COc1cc2c(C(=O)N3CCN(C4CCCCC4)CC3)cn(CC(C)C)c(=O)c2cc1OC
  4.2 | -1.4 | 5.1 | -0.5 | · | -7.7% | · | · | · | -17.9
> Cc1cccc(NC(=O)CCNC(=O)c2ccc(Br)cc2)c1C
  1.0 | -2.5 | 2.7 | 1.8 | 0.7 | 1.2% | 16.8 | 16.1 | 1.2 | -10.3
> CNC(=O)NC(=S)NC(=O)c1cccc(Cl)c1
  -9.8 | -0.8 | -14.5 | 0.5 | -1.5 | 0.0% | -6.2 | -1.4 | -2.0 | -7.6
> CCOc1ccc(CNc2ccc3c(c2)ncn3C)cc1
  -2.9 | 9.5 | 3.0 | 0.9 | · | 7.4% | · | · | · | -3.8
> Cn1cc([N+](=O)[O-])c(C(=O)Nc2ccc3c(c2)OCCO3)n1
  -3.1 | 6.2 | 6.4 | -4.3 | · | 4.7% | · | · | · | 10.3
> CCOc1ccc(C(=O)N2CCSC2=S)cc1
  -7.4 | 0.5 | -2.2 | 0.0 | · | 5.9% | · | · | · | -4.1
> O=C(Cc1ccccc1F)Nc1ccc(S(=O)(=O)N2CCCC2)cc1
  0.0 | · | · | -1.6 | 4.5 | · | -12.1 | -15.4 | -4.0 | ·
> C=C(C)C(=O)OC1(C(F)(F)F)Oc2cc(C)ccc2NC1=O (centres undefined)
  33.3 | -3.8 | 6.5 | 1.2 | · | -1.3% | · | · | · | -8.8
> C=CCNC(=O)c1sc(SC)cc1-c1ccc(Cl)cc1
  6.0 | -3.8 | -2.5 | -0.1 | · | -4.9% | · | · | · | 10.1
> CCOC(=O)/C(C#N)=C/c1ccc(OC(=O)c2ccccn2)cc1
  4.9 | 2.7 | -5.9 | -6.9 | -1.7 | · | 6.5 | -11.4 | 1.6 | 0.0
> Cc1ccc(OCC(=O)Nc2cccc(S(=O)(=O)N3CCCCCC3)c2)c([N+](=O)[O-])n1
  -1.5 | 3.7 | -0.2 | 0.2 | 3.9 | -0.5% | 3.1 | 2.4 | -4.3 | 28.5
> CCCCCCCCCC(=O)N[C@H](CN1CCOCC1)[C@H](O)c1ccccc1
  · | -1.0 | -11.1 | 0.1 | -0.6 | · | -53.3 | -76.0 | -8.6 | -19.1
> O=[N+]([O-])c1ccc(O)c(C=Nc2ccc3c(c2)OCCO3)c1
  5.7 | ? | -5.0 | -0.2 | · | -4.1% | · | · | · | -15.5
> CN(CC(=O)NCc1ccc(F)cc1)Cc1cccc(Cl)c1
  4.3 | -1.1 | 3.2 | 0.3 | -0.7 | 17.3% | -2.7 | 1.7 | -0.1 | 11.9
> COc1ccc(NC(=O)COC(=O)CCOc2ccccc2C)cc1Cl
  3.7 | 1.3 | 0.1 | 0.0 | -6.3 | -2.2% | -13.4 | -14.2 | 3.8 | -11.4
> COCC(=O)Nc1cc([N+](=O)[O-])ccc1C
  -2.3 | 4.6 | 2.9 | 1.0 | · | ? | · | · | · | -6.6
> COc1ccc(S(=O)(=O)N2CCN(C(=O)NCc3ccccc3)CC2)cc1
  -3.7 | 2.5 | -14.9 | 1.2 | · | -4.9% | · | · | · | -3.4
> Cc1cc(N/C=C/C(=O)c2cccc3ccccc23)no1
  2.1 | -3.6 | -2.3 | 0.1 | · | -1.8% | · | · | · | 4.6
> Cc1ccc(S(=O)(=O)N[C@H](C(=O)N2CCC(C(=O)N[C@@H](CCC(N)=O)C(=O)O)CC2)C(C)C)cc1
  -0.8 | 2.4 | -0.9 | -0.4 | -0.4 | · | · | · | · | 3.2
> Cc1nc(-c2ccccc2)sc1C(=O)Nc1ccc(S(N)(=O)=O)cc1
  6.0 | 3.5 | 0.9 | -6.8 | -2.3 | -11.8% | -1.9 | 16.9 | -0.6 | 1.2
> COc1ccc(NC(=O)OC(C)C)cc1
  -0.7 | 4.4 | 9.1 | 0.5 | · | 17.5% | · | · | · | -11.6
> Cc1ccc(S(=O)(=O)N2CCCCC2C(=O)Nc2nncs2)cc1 (centres undefined)
  -1.2 | -0.7 | -3.3 | 1.3 | -10.7 | 8.9% | -3.3 | 1.3 | -0.5 | -3.5
> CCN(CC)CC(O)Cn1c(-c2ccccc2Cl)nc2ccccc21 (centres undefined)
  -3.4 | -1.0 | 6.0 | 0.2 | -3.2 | -10.6% | -4.3 | 9.0 | -1.5 | -10.3
> CCc1ccc(N/C(N)=N/c2nc(CSc3ccccn3)cc(=O)[nH]2)cc1
  40.9 | · | 12.6 | 1.3 | -2.5 | -3.2% | 5.3 | 5.2 | -1.4 | -9.9
> CCc1nc2ccccc2c(C(=O)OCC(=O)Nc2cccc(S(=O)(=O)NC3=NCCCCC3)c2)c1C
  21.0 | 2.2 | 4.5 | 0.9 | 3.6 | -2.2% | -20.4 | -11.0 | 20.6 | 21.6
> CCOCCCNC(=O)C(c1ccc(Cl)cc1)N(Cc1ccc2c(c1)OCO2)C(=O)CNC(C)=O (centres undefined)
  -4.5 | -3.2 | -5.7 | 0.2 | -1.6 | -5.3% | 2.3 | -6.6 | -2.7 | -10.7
> CCOC(=O)c1cc(C)sc1NC(=O)CSc1nccn1C
  -1.3 | 0.1 | -2.3 | -0.6 | 5.8 | · | -1.7 | -0.7 | 1.1 | -1.2
> Cc1c(C(=O)N2CCCCC2)sc(NC(=O)c2ccco2)c1C#N
  0.1 | 3.4 | 14.4 | -0.8 | · | 4.5% | · | · | · | 1.3
> COc1ccccc1CNC(=O)N1CCN(S(=O)(=O)c2ccc(C)cc2)CC1
  -3.8 | 2.9 | -8.7 | 1.0 | -0.2 | · | 13.1 | 9.2 | -0.3 | -6.6
> COc1ccc([C@H]2CC(=O)C=C(c3cccc4c3Oc3ccccc3S4)C2)cc1OC
  15.2 | · | · | -1.0 | 4.4 | · | 7.6 | 8.8 | -0.4 | ·
> COc1cc2c(cc1OC)C(c1ccccc1C)CC(=O)N2 (centres undefined)
  -2.2 | -0.2 | -8.8 | 1.1 | -7.6 | · | 4.6 | 0.9 | -0.2 | 8.3
> Cc1ccc(NC(=O)CSc2ncccn2)cc1S(=O)(=O)N1CCCCC1
  3.5 | 0.4 | 3.2 | 0.3 | -2.0 | 3.5% | -5.4 | -18.2 | 1.5 | 4.3
> CCC(=O)N1CCc2cc(S(=O)(=O)N3CCc4ccccc43)ccc21
  -1.6 | -0.5 | 0.0 | 0.1 | · | 4.2% | · | · | · | 19.7
> O=C(Nc1cccnc1Cl)c1ccc(Cl)cc1
  0.6 | -0.3 | 12.8 | -0.2 | -1.5 | · | 5.2 | 10.9 | 2.0 | -13.2
> O=C(COC(=O)c1ccccc1SCC(=O)N1CCCC1)Nc1ccccc1OC(F)F
  -1.3 | 2.2 | -3.7 | -0.2 | 2.6 | 0.1% | -3.1 | -13.5 | 2.3 | 19.0
> O=c1c2c(O)cc(O)cc2oc2c(O)ccc(O[C@H]3O[C@@H](CO)[C@H](O)[C@@H](O)[C@@H]3O)c12
  -3.8 | · | · | 0.2 | -5.6 | · | -1.9 | 6.7 | -2.7 | ·
> COc1cc(/C=C/C(=O)NNc2c(F)c(F)cc(F)c2F)ccc1OC(F)F
  4.9 | -2.3 | ? | 0.3 | · | -2.8% | · | · | · | 16.4

Some of the compounds tested (hit frequency here may not be typical).
